Screens deposited in PubChem BioAssay by several laboratories.
YopH PTP inh = blocks Yersinia enterocolitica YopH tyrosine phosphatase | fluorescence Ex485/Em525 | inhibition, %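 (about 10 µM by stock and volumes)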 | 140,000 tested, 0.16% active;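 active means inhibition of 50% or more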;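 further: controls were vehicle for no effect and minimum signal wells for full effect; inactives centre near -20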
RecA intein inh = inhibitors of M. tuberculosis RecA intein splicing; AID 2221; 290,000 tested, 0.75% active; inhibition, %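 (about 9 µM by stock and volumes)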; P9WHJ3; cell-free RecA intein splicing, fluorescence; in the data active means inhibition above about 30%;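 further: 0% = vehicle wells and 100% = reference inhibitor control wells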
Target sequence (P9WHJ3 whole entry, looked up): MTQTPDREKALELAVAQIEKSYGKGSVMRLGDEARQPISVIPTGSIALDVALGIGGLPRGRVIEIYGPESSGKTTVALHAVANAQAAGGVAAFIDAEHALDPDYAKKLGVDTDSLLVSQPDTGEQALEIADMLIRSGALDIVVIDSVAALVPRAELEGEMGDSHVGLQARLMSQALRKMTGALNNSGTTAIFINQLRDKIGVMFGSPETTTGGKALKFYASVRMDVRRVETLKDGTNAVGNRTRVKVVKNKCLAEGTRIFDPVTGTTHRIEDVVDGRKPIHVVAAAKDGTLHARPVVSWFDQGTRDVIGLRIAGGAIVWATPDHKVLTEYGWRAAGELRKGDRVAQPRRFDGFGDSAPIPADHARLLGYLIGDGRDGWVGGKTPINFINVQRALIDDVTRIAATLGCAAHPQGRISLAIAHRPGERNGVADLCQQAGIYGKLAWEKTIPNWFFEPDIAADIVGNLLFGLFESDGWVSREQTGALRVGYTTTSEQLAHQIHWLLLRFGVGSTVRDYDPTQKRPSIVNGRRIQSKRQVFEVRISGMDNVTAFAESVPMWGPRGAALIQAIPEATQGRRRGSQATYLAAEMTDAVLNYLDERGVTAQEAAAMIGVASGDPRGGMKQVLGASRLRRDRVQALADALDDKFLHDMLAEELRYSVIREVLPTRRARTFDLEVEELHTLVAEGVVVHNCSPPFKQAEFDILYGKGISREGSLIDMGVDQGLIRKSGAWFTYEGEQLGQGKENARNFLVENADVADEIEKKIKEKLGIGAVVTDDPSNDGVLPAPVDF
Mtb bLac sens = beta-lactam sensitization of Mtb H37Rv | M. tuberculosis H37Rv growth with meropenem, percent inhibition; hits of this screen are not shown here | inhibition, % at 25 µM | 330,000 tested, 0.27% active;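 active means about 74% or more and at least 40 points above the plate without the antibiotic, then above 30% in a dose series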;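 further: growth measured after seven days incubation then overnight dye step; 0% = bacteria only wells and 100% = bacteria with antibiotic; twin plates without the antibiotic show which effects depend on it; some results filed as inactive read as strong as hits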
Arbovirus anti = antivirals against arbovirus infection; inhibition, % at 10 µM; arbovirus infection cell-based antiviral screen; 200,000 tested, 0.37% active; AID 1251;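 active means inhibition from about 30%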;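 further: bluetongue infection of BSR cells; cell survival read as ATP light after 72 h; 0% = infected wells without compound and 100% = uninfected wells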
Mtb H37Rv = M. tuberculosis H37Rv growth inhibitors, H37Rv strain (AID 1626) | M. tuberculosis H37Rv growth inhibition; higher % means a stronger effect | inhibition, % at 10 µM, or IC50 in µM where a hit was titrated | 220,000 tested, 0.95% active;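 active means confirmed in a dose series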;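 further: bacteria incubated seven days before Alamar blue readout; 0% = bacteria only wells and 100% = bacteria with antibiotic wells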
Arbovirus anti repeat = second read-out of Arbovirus anti, no call of its own (marks repeat the call); inhibition, %; measured here: 10K subset replicate screen; many hits read low in the repeat;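 first of two repeat runs on a subset; 0% = infected and 100% = uninfected wells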
* marks the source's active call; other numbers are inactive results; nt = no result given. A portion of the library; count on the stated rates, not on these rows.

SMILES	YopH PTP inh	RecA intein inh	Mtb bLac sens	Arbovirus anti	Mtb H37Rv	others
Cc1ccc(O)c(NC(=S)NC(=O)Cc2ccc(Cl)cc2)c1	nt	0.4	95	nt	nt
Cc1cc(NC(=O)C(C)SCC(=O)O)no1 (stereo not drawn)	nt	-0.1	-18	8	5%
N#CC1(NC(=O)COC(=O)c2cc(=O)[nH]c3ccccc23)CCCCC1	nt	-1.2	3	nt	nt
O=C(CCC1CCN(C(=O)c2cncs2)CC1)Nc1ccccc1	nt	-5.5	-7	nt	nt
CCCN1CCc2c(sc(NC(=O)c3ccc(S(=O)(=O)N(C)c4ccccc4)cc3)c2C(N)=O)C1	nt	-6.0	8	nt	nt
N#Cc1ccc(/C=N/NC(=S)Nc2ccc(S(=O)(=O)N3CCOCC3)cc2)cc1	nt	1.2	-2	nt	-11%
CCOC(=O)Cc1cc(-c2ccc(F)cc2)nc2ccc3ccccc3c12	-37	-2.9	4	2	14%
CCCCCn1nc(-c2ccccc2)c2nc3ccccc3nc21	-24	-56	-3	-10	-1%
COc1ccccc1CNC(=O)COC(=O)Cc1ccc(F)cc1	nt	0.8	6	nt	nt
COCc1cc(C)n(CC(=O)Nc2cc(C)cc(C)c2)c(=O)c1C#N	nt	-0.7	4	7	-6%
CCOC(=O)N1CCN(C(=O)CS(=O)(=O)c2cn(Cc3ccccc3Cl)c3ccccc23)CC1	-22	13	-6	1	1%
Cc1ccc(S(=O)(=O)/N=C(/Nc2c(C)n(C)n(-c3ccccc3)c2=O)c2ccccc2)cc1	-15	-1.2	-8	7	1%
S=C(NCCc1ccccc1)N1CCN(C23CC4CC(CC(C4)C2)C3)CC1	nt	0.7	5	-4	13%
Cc1cccc(C)c1NC(=O)CN(C1CCCCC1)S(C)(=O)=O	nt	-0.7	-5	nt	nt
CCN(CCn1cccn1)C(=O)CC1C(=O)NCCN1Cc1cc(OC)cc(OC)c1 (stereo not drawn)	nt	-1.0	7	4	-7%
CC(C)Cc1nc2ccc(N)cc2[nH]1	nt	0.0	-13	-5	8%
CCCNS(=O)(=O)c1ccc(CCC(=O)Nc2cc(Cl)ccc2Oc2ccccc2)cc1	-26	6.3	nt	-2	11%
CCOc1cc(N2CCOCC2)c(OCC)cc1NC(=O)C1CCCC1	-24	-7.4	0	1	-10%
CCOc1cc(C)c(C(C)C)cc1S(=O)(=O)n1cnc(C)c1	nt	6.8	-2	-9	4%
CCOc1ccc(CN2CCN(Cc3nc(C(C)C)cs3)CC2CCO)cc1 (stereo not drawn)	nt	1.0	-1	9	-2%
CC(=O)c1sc(NC(=O)Cc2c(F)cccc2Cl)nc1C	nt	-3.9	3	nt	nt
O=C1CSC(c2ccncc2)N1Cc1ccco1 (stereo not drawn)	7	-6.1	-10	2	-3%
COc1ccc(CCNC(=O)COc2nsnc2N2CCOCC2)cc1OC	-37	-1.2	3	2	-5%
O=c1cc(-c2ccccc2)c2c([nH]1)CCCC2	-19	0.3	nt	2	-2%

Some of these compounds in order of SMILES length, falling:
SMILES	YopH PTP inh	RecA intein inh	Mtb bLac sens	Arbovirus anti	Mtb H37Rv	others
CCOC(=O)N1CCN(C(=O)CS(=O)(=O)c2cn(Cc3ccccc3Cl)c3ccccc23)CC1	-22	13	-6	1	1%
CCCNS(=O)(=O)c1ccc(CCC(=O)Nc2cc(Cl)ccc2Oc2ccccc2)cc1	-26	6.3	nt	-2	11%
CCN(CCn1cccn1)C(=O)CC1C(=O)NCCN1Cc1cc(OC)cc(OC)c1 (stereo not drawn)	nt	-1.0	7	4	-7%
N#CC1(NC(=O)COC(=O)c2cc(=O)[nH]c3ccccc23)CCCCC1	nt	-1.2	3	nt	nt
S=C(NCCc1ccccc1)N1CCN(C23CC4CC(CC(C4)C2)C3)CC1	nt	0.7	5	-4	13%
COCc1cc(C)n(CC(=O)Nc2cc(C)cc(C)c2)c(=O)c1C#N	nt	-0.7	4	7	-6%
CCOC(=O)Cc1cc(-c2ccc(F)cc2)nc2ccc3ccccc3c12	-37	-2.9	4	2	14%
COc1ccc(CCNC(=O)COc2nsnc2N2CCOCC2)cc1OC	-37	-1.2	3	2	-5%
CC(=O)c1sc(NC(=O)Cc2c(F)cccc2Cl)nc1C	nt	-3.9	3	nt	nt
CCCCCn1nc(-c2ccccc2)c2nc3ccccc3nc21	-24	-56	-3	-10	-1%
O=c1cc(-c2ccccc2)c2c([nH]1)CCCC2	-19	0.3	nt	2	-2%
Cc1cc(NC(=O)C(C)SCC(=O)O)no1 (stereo not drawn)	nt	-0.1	-18	8	5%
O=C1CSC(c2ccncc2)N1Cc1ccco1 (stereo not drawn)	7	-6.1	-10	2	-3%

Other structures follow.
SMILES	YopH PTP inh	RecA intein inh	Mtb bLac sens	Arbovirus anti	Mtb H37Rv	others
COc1cccc(CN(CC(=O)NC2CCCC2)C(=O)CCC(=O)Nc2cc(C)on2)c1	-18	nt	-2	8	nt
CC(=O)Nc1ccc(C(=O)OCc2ccc(F)cc2)cc1	nt	0.1	-1	-2	-1%
CN(C)C(=O)C12CCC(C)(c3nc4ccccc4nc31)C2(C)C (stereo not drawn)	-17	1.8	-2	0	-2%
O=C(/C=C/c1ccccc1Cl)NCCCn1ccnc1	nt	1.6	1	nt	nt
CCc1ccc(Nc2n[n+](-c3ccccc3)c(-c3ccc(SC)cc3)s2)cc1	nt	3.1	98	nt	nt
CC(C)(C)c1ccc(/C=C2\CCn3c2nc2cc(C(=O)O)ccc2c3=O)cc1	nt	2.8	36	nt	nt
CCOc1[nH]n(-c2ccccc2)c(=O)c1C=Nc1ccc(F)cc1F	nt	4.6	-2	14	3%
COc1ccccc1N1CCN(S(=O)(=O)CCNC(=O)CCCc2ccccc2)CC1	nt	-0.1	-12	nt	nt
Cc1ccc(C(=O)NCCc2nc3ccccc3[nH]2)cc1[N+](=O)[O-]	-22	0.5	-3	-4	-1%
CC(C)(C)[C@@H]1C=C(C(=O)NCc2ccccc2)O[C@H](OCc2ccc(CO)cc2)C1	nt	5.1	5	5	nt
Cc1ccc(-c2nnc(N3CCCCCC3)c3ccccc23)cc1	nt	1.0	18	nt	nt
COc1ccc(OC)c(N)c1	-1	9.4	-1	-13	nt
CC(=O)c1cc(-c2ccccc2)n(CCC(=O)NC2CCC(C)CC2)c1C (stereo not drawn)	-31	0.8	6	2	5%
CC(NC(=O)c1cc(S(=O)(=O)N(C)C)ccc1N1CCCC1)C1CC2CCC1C2 (stereo not drawn)	nt	-1.2	-7	-10	5%
CN(c1cccc(Cl)c1)S(=O)(=O)c1cccc(C(=O)NC2=NCCS2)c1	-26	0.5	-6	0	9%
COc1ccc(F)cc1C(=O)C1CCCN(Cc2cnc(N3CCCC3)s2)C1 (stereo not drawn)	nt	-9.7	-1	1	9%
O=C(c1nn(-c2ccccc2)c(=O)c2ccccc12)N1CCN(c2ccccn2)CC1	4	-1.1	-3	7	-9%
COC(=O)c1sc(C(F)(F)F)c(-c2ccccc2)c1S(=O)(=O)N(C)C	nt	1.2	-3	nt	-2%
O=C(Nc1ccnn1C1CCN(CCCC2CCCC2)CC1)c1ccccc1	nt	2.2	8	nt	nt
O=C(CSc1nc(=O)n(CCCN2CCOCC2)c2c1CCCC2)Nc1cccc(F)c1	nt	-0.4	-3	nt	nt
COc1ccc(Cc2nnc(SCC(=O)Nc3ccc(C)c(Cl)c3)[nH]c2=O)cc1	nt	1.7	-11	nt	nt
COc1ccc(S(=O)(=O)Cc2ccc(C(=O)NC3CCCCCC3)o2)cc1	nt	2.2	-2	nt	nt
COC(=O)C[C@H]1c2cc(C(F)(F)F)ccc2S(=O)(=O)N1Cc1ccc(OC)cc1	nt	-0.3	-12	nt	-7%
O=C(O)C(Cc1c[nH]c2ccccc12)NS(=O)(=O)c1ccccc1 (stereo not drawn)	-16	1.9	83	2	-10%
Cc1cccc(C)c1NC(=O)CSc1nnnn1C	-51	1.2	-2	0	-8%
O=C(O)c1ccccc1S(=O)(=O)Cc1ccccc1	-23	-1.1	5	-2	-1%
Cc1cc(-c2cc(N)n(-c3ccccc3)n2)c(C)n1C1CCCC1	-11	5.0	12	10	8%
CC(C)CCNC(=O)c1ccc2c(c1)N(C)C(=O)c1ccccc1S2	nt	7.6	1	nt	nt
O=C/C=C/c1c(-c2ccccc2)cc2oc3ccccc3cc1-2	nt	-1.5	70	nt	nt
CS(=O)(=O)NCCCNc1c(Cl)cccc1[N+](=O)[O-]	-17	-0.9	-1	1	1%
Cc1cc(=O)[nH]c(NCc2ccc(Cl)cc2)n1	nt	-3.3	-2	nt	nt
CS(=O)(=O)NCCSCc1ccco1	-46	-3.7	4	7	-5%
C=CCc1cccc(CNc2ccc(Br)cc2)c1O	nt	11	4	0	6%
Cc1oc(-c2ccc(Cl)cc2)nc1CN1CCCC(C(=O)NCc2cccnc2)C1 (stereo not drawn)	-41	-2.1	3	3	-2%
CS(=O)(=O)c1ccc2nc(NC(=O)c3cc([N+](=O)[O-])cc([N+](=O)[O-])c3)sc2c1	nt	-3.0	-1	nt	nt
COCCOC(=O)C1=C(C)Nc2ncnn2C1c1ccccc1 (stereo not drawn)	-21	9.2	-15	6	-7%
CC12CCC(C(=O)NCc3ccccc3Cl)(C(Br)C1=O)C2(C)C (stereo not drawn)	-12	-1.5	-4	11	-1%
O=c1c2ccccc2nc(SCc2cccc(F)c2)n1C1CCCC1	-23	0.3	0	-12	6%
COc1ccc(N2CCN(CC(=O)Nc3nc4c(s3)CC(C)CC4)CC2)cc1 (stereo not drawn)	-40	-4.1	100	14	4.4µM*
CCOc1ccc(NC(=O)NCCN2CCN(c3ccccc3F)CC2)cc1	nt	-2.0	0	nt	nt
c1ccc2[nH]c(CN3CCOCC3)nc2c1	-19	-4.8	3	7	-3%
COc1cccc(NC(=O)Nc2cc(C(=O)NCC3CCCO3)ccc2N2CC3CC(C2)c2cccc(=O)n2C3)c1 (stereo not drawn)	nt	-1.7	1	nt	nt
Cc1nn(Cc2ccccc2)c(C)c1NC(=O)CSc1n[nH]c(C)c1[N+](=O)[O-]	9	-0.2	-2	-6	18%
O=C(Nc1ccc(Cl)cc1)N1CCOC12CCCCC2	nt	nt	-8	6	-2%
CCn1c(SCC(=O)Nc2nccs2)nnc1-c1ccncc1	-1	0.6	-3	1	-1%
Cc1ccc(NS(=O)(=O)c2ccc(C(=O)NCc3cccnc3)cc2)cc1	nt	0.0	-20	nt	nt
CCCc1cc(=O)oc2cc(C)cc(OCC(=O)NCc3ccccn3)c12	nt	-1.3	4	nt	nt
Cc1ccc2c(c1)C(c1ccccc1)=NCC(=O)N2C	nt	0.4	-4	nt	nt
Cc1ccc(CCN2CC(C(=O)NC3CCCCC3)CC2=O)cc1 (stereo not drawn)	nt	1.1	-5	nt	nt
Cc1c(Cl)cccc1NC(=O)CSc1sc2c(O)cc(=O)[nH]c2c1C#N	nt	4.7	1	nt	nt
O=C(COc1ccccc1Cl)NCc1ccncc1	-33	3.0	-6	-3	-8%
O=C(Nc1ccc(F)c(F)c1)c1cnc(-c2ccccc2)nc1-c1ccccc1	-38	-2.9	-16	9	0%
Cc1ccc(CSc2nnc(NC(=O)Cn3cnc4ccccc4c3=O)s2)cc1	nt	-1.8	-9	8	-2%
CCn1c(=O)c(C(=O)NCCN2CCCCC2)c(O)c2ccccc21	-40	nt	-5	-1	-2%
Cc1nc2sc(C(c3cccs3)N3CCN(c4ccccc4)CC3)c(O)n2n1 (stereo not drawn)	-1	12	4	5	-4%	Arbovirus anti repeat=5
Cc1ccc(NC(=O)CSc2nnc(-c3cccs3)o2)cc1S(=O)(=O)N1CCCCC1	-17	0.7	-4	4	4%
O=C(COC(=O)c1ccc(S(=O)(=O)NCc2ccco2)cc1)Nc1ccc(OC(F)F)cc1	-13	nt	0	8	1%
COc1cccc(N2CCN(Cc3nc4scc(-c5ccccc5)c4c(=O)[nH]3)CC2)c1	-28	5.2	40	11	14%
Cc1nccn1Cc1ccc(Cl)nc1	nt	-1.4	1	11	-5%
Nc1ccc2oc(-c3ccc4nc[nH]c4c3)nc2c1	-20	-2.0	-4	-10	-9%
Following part
SMILES	YopH PTP inh	RecA intein inh	Mtb bLac sens	Arbovirus anti	Mtb H37Rv	others
Cn1c(=O)c2c(ncn2CC(=O)NC(C)(C)C)n(C)c1=O	-1	0.5	2	-1	-7%
CC(C)(C)OC(=O)N1CCN(CCNC(=O)c2ccccc2)CC1	nt	1.4	-10	nt	nt
CCOc1ccc2[nH]c(=O)c(CN(CCc3ccccc3)C(=O)c3cnccn3)cc2c1	-26	1.9	-4	-2	-14%
CCOc1ccccc1/C=N/N1CCN(Cc2ccccc2)CC1	nt	-2.4	-5	nt	nt
COC(=O)c1c(C(=O)OC)c(-c2ccccc2)n2c1CS(=O)C2 (stereo not drawn)	-38	-3.8	-26	0	-3%
OC1(c2ccccc2F)CCN(Cc2nnnn2Cc2ccc(F)cc2)CC1	nt	1.5	-7	-3	8%
